# Screens from PubChem.
# D2 potentiator = Beta-Arrestin HTS for Positive Allosteric Modulators of the Human D2 Dopamine Receptor: Potentiators; DiscoveRx D2 beta-arrestin cells, luminescence, 90 min; 100% = 57 uM dopamine signal; potentiation, % (test concentration not listed); hit rate 0.23% among 360,000; AID 624464, 2012; active = potentiation of 50% or more; inconclusive = 30% to 50%; inactive = 30% or less;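 also: compound concentration not given in the record; tested on top of an EC20 dose of dopamine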
#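 PathHunter D2 cells, attached overnight at 37 deg C, received compound in DMSO plus dopamine at EC20 (50 nM final) for 90 min at 37 deg C. Beta-arrestin recruitment was read as luminescence after 1 h with detection reagent at ambient temperature.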
# TRPML1 inh = qHTS for Inhibitors of the Human Mucolipin Transient Receptor Potential 1 (TRPML1); Mucolipin-1 (Homo sapiens), Q9GZU1; TRPML1-inducible cells, Ca2+ dye fluorescence, FDSS; hits give low values; inhibition of EC80 agonist-evoked calcium signal; activity change, negative = inhibition, % (test concentration not listed); hit rate 0.02% among 390,000; in the data active means activity change below about -50%; inconclusive means about -30% to -50%; inactive means above about -30%;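 also: stimulus is agonist 54-4 at its EC80 concentration; % is scaled to controls: 0 for no effect and ±100 for the full control effect; compound concentration not given in the record; the text of the record puts the active cut at -80%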
#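 Tet-induced TRPML1-DL cells loaded with Ca8 no-wash calcium dye were read kinetically on FDSS. Compound addition was followed by EC80 agonist 54-4 (4 uM final); inhibition was read over 110 s.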
# TRPML1 agonist = qHTS for Agonists of the Human Mucolipin Transient Receptor Potential 1 (TRPML1). activation, % (concentration not given with the values). Mucolipin-1 (Homo sapiens), Q9GZU1. AID 624414, 2012. TRPML1-expressing cells, Ca2+ dye fluorescence, FDSS; host cell line not named in the record; reference of the full effect not given here. hit rate 0.12% among 410,000; in the data active = activation above about 50%; inconclusive = about 30% to 50%; inactive = below about 30%; also: 0% is about no effect; the text of the record puts the active cut at 80%
#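 Tet-induced TRPML1-DL cells, 1,500 per well, cultured overnight, were loaded with a no-wash Ca2+ dye for 45–90 min. Calcium fluorescence was recorded on the FDSS for 110 s after compound addition, before the EC80 agonist (4 uM 54-4) was added.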
# PINK1 modulator = A Quantitative High throughput Screen to Identify Chemical Modulators of PINK1 Expression. AID 624263, 2012. hit rate 0.2% among 410,000. Potency, µM (top dose mostly 76.6 µM), without a hit: at the highest dose activation (PINK1 increase), most hits filed as activators. PINK1 immunofluorescence, high-content cytometry, 24 h; active = well fitted activation curve with a large enough effect; inconclusive = small, poorly fitted or top-dose-only effect; inactive = flat fitted curve, though single readings scatter; cell line not stated here;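 also: potency is read from the fitted curve at half-maximal effect; % of control where 0% means no effect; nearly all actives have a fitted effect of over 65% in size; a mitochondrial uncoupler was the plate control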
#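 PINK1 protein level read as immunofluorescence by microplate cytometer in a fixed, stained stable cell line after 24 h exposure to five compound concentrations, with CCCP as control.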
# Six1-Eya2 inh = qHTS Assay for Inhibitors of the Six1/Eya2 Interaction. Homeobox protein SIX1 (Homo sapiens) + Protein phosphatase EYA2 (Homo sapiens), …. AlphaScreen GST-Six1/His-Eya2 binding, biochemical; hits give low values; control for the full effect not named in the record. activity change, % (no concentration beside the values). hit rate 0.56% among 360,000. AID 651725, 2012; in the data active = activity change below about -65%; inconclusive = about -30% to -65%; inactive = above about -30%; also: % is scaled to controls: 0 for no effect and ±100 for the full control effect; compound concentration not given in the record
# Target sequence (O00167 whole entry, looked up): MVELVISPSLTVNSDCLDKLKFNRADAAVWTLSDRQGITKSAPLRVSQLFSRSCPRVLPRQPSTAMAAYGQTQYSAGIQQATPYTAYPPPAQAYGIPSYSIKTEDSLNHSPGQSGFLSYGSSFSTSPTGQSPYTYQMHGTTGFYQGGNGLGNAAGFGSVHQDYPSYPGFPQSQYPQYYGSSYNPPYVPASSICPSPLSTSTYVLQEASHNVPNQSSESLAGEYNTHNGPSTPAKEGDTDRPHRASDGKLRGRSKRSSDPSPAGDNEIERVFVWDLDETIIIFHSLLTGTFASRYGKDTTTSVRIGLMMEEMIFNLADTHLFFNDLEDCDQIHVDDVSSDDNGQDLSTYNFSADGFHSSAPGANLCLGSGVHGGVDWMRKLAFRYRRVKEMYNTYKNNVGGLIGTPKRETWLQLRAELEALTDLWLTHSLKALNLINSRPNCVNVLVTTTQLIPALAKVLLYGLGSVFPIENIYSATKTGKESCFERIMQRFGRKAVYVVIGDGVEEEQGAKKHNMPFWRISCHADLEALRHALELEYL
# Target sequence (Q15475 whole entry, looked up): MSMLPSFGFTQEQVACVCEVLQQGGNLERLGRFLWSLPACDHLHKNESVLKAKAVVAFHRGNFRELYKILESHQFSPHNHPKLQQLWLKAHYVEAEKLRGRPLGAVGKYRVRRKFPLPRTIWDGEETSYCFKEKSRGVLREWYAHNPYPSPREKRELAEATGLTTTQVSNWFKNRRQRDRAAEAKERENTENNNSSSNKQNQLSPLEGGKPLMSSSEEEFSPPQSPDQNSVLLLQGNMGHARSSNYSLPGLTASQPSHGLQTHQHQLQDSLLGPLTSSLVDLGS
#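 AlphaScreen luminescence read after one hour at 37 °C in darkness. Pin-transferred compounds met GST-Six1 and His-Eya2 protein (5X stock 250 nM/500 nM) plus glutathione donor and Ni-chelate acceptor beads (5X, 50 ug/mL).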
# D2 ag = Beta-Arrestin HTS for Positive Allosteric Modulators of the Human D2 Dopamine Receptor: Agonists | hit rate 0.084% among 360,000 | activation, % (concentration not given with the values) | DiscoveRx PathHunter D2 beta-arrestin, luminescence, 90 min; 100% = 57 uM dopamine signal | AID 624465, 2012 | D(2) dopamine receptor (Homo sapiens), P14416; in the data active = activation above about 40%; inconclusive = about 15% to 40%; inactive = below about 15%; also: compound concentration not given in the record; the text of the record calls up to 30% inactive
#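 Agonist mode: compounds alone added to overnight-plated D2 PathHunter cells for 90 min at 37 C, with 57 uM final dopamine (EC100) defining full response. Beta-arrestin recruitment detected by chemiluminescent reagent, read after 1 h at ambient temperature.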
# * hit, by the source's call; ? = inconclusive; . = not tested or not shown; [ ] = dose if it differs, or a comment.
SMILES,D2 potentiator,TRPML1 inh,TRPML1 agonist,PINK1 modulator,Six1-Eya2 inh,D2 ag
CN(C)c1ccc(NC(=O)CSc2n[nH]c(-c3ccco3)n2)cc1,-10.2,10.1,-1.5,-0.2%,-8.4,0.2
Cc1c2cnn(-c3ccccc3)c(=O)c2c(C)n1CCCC(=O)NCCN1CCN(C)CC1,-1.2,13.5,0.2,0.9%,-0.4,5.4
COc1ccc(C(=O)CC2OC(=O)c3ccccc32)cc1OC (stereo not given),3.2,19.6,-0.8,-0.9%,-0.4,-1.0
O=C(Nc1ccc(S(=O)(=O)NC2CCCC2)cc1)c1cnccn1,-1.5,17.3,-0.4,3.6%[38.3 µM],2.5,2.7
CC(=O)N/C(=C\c1ccc(F)cc1)C(=O)OC(C)C,1.7,9.0,0.7,0.2%,0.0,4.5
Cc1c(C(=O)Nc2ccc(S(=O)(=O)N(C)C3CCN(C)CC3)cc2)oc2ccccc12,-28.2,6.5,0.5,-2.5%,-4.8,-1.0
CCN(C(=O)C1CCN(c2nc(-c3ccc(OC)cc3)no2)CC1)c1ccc(OC)cc1,-2.0,27.8,1.2,-0.8%,-1.0,0.3
Cc1ccccc1S(=O)(=O)NC(=O)C1(C)CCN1C(=O)Cc1ccc(Cl)cc1Cl (stereo not given),1.0,.,0.0,0.0%,15.2,-2.3
Cc1nc2ccccc2n1CC(=O)N/N=C/c1cccs1,-4.2,-10.8,-0.2,0.5%,-11.4,-0.9
Cc1ccccc1C(=O)NCCCc1ccccc1,-8.6,11.3,0.0,-0.1%,-0.7,-1.3
C=CCn1c(SCC(=O)Nc2cc(C)cc(C)c2)nnc1-c1cnccn1,-7.2,-11.4,0.9,-0.1%[38.3 µM],-7.4,-2.2
COc1ccc(N2CCN(C(=O)c3ccccc3F)CC2)c([N+](=O)[O-])c1,0.6,.,.,-0.2%,-10.0,1.9
COc1ccc(/C=C/C(=O)NCCCN2CCCCCC2)cc1,-9.7,13.3,1.6,-2.6%,0.0,3.8
Cc1cc(NC(=O)c2c([N+](=O)[O-])c(C)nn2C)no1,-40.6,-13.5,-1.0,0.4%,-6.8,-3.4
N#C/C(=C\c1ccc(OC(=O)c2cccs2)cc1)c1nc2ccccc2[nH]1,-10.7,-8.0,0.3,3.3%,-20.5,0.7
O=C(OCC(=O)N1CCCCC1)c1c[nH]c2ccccc12,8.8,8.4,-0.9,-2.6%,3.8,-1.2
CC1CCCC(C)N1C(=O)CCN1C(=O)C2C3C=CC(C3)C2C1=O (stereo not given),1.4,-2.0,0.0,-1.1%,3.9,-2.0
CN(CC1CCCO1)S(=O)(=O)c1ccc(C(=O)NCc2ccccc2)cc1 (stereo not given),5.6,2.4,-0.8,-0.5%,2.7,5.8
CCOC(=O)C(C(=O)OCC)C(Nc1ccc(Br)cc1)c1ccccc1 (stereo not given),-16.2,4.6,1.0,7.3%[38.3 µM],19.7,-4.7
Nc1nc(-c2ccccc2)[nH]c(=O)c1N,-4.8,0.0,1.3,?,-21.3,5.7
COc1ccc(-c2c(NC(=O)c3ccco3)oc3ccccc3c2=O)cc1OC,-15.0,.,.,1.3%,5.6,-5.0
Cc1nnc(NC(=O)CCN2C(=O)C3CC=CCC3C2=O)s1 (stereo not given),-6.8,27.4,-0.6,0.9%,3.4,0.4
CCC(=O)c1cn(CC(=O)Nc2ccc(C)cc2)c2ccccc12,-2.7,-2.9,-0.1,3.9%,-2.7,-2.2
Cc1cnc(C(=O)OCc2cc(=O)n3c(C)cccc3n2)cn1,1.7,27.9,-0.5,-1.7%,9.7,0.0
CCOC(=O)n1c(=O)oc2ccc(Cl)cc21,13.5,-9.8,1.4,0.3%,-24.8,2.2
CC1(C)CSC(=NCCc2ccccc2)N1C(=O)c1ccc(C#N)cc1,-10.6,25.7,-0.2,0.5%,-3.9,-4.2
COc1ccc(NC(=O)c2cccc(S(=O)(=O)NCc3ccccc3)c2)cc1S(N)(=O)=O,-2.8,-4.9,2.6,-0.3%,-4.7,10.0
CCN1CCN(C(=O)c2ccc3c(c2)N(Cc2ccc(F)cc2)C(=O)c2ccccc2S3=O)CC1 (stereo not given),-10.0,-0.6,0.1,1.2%,6.4,0.2
C=CCn1c(N)nc2ccccc21,-8.2,-2.1,0.0,-2.9%,12.6,-1.2
CCCCc1ccc(NC(=O)CSc2nc(=O)n(CCCN3CCOCC3)c3c2CCC3)cc1,-25.5,-0.4,-0.1,-0.3%,-21.2,-2.3
CCOC1=CC2=C(C(=O)C(Cl)=CC2=O)[C@@H]2CN(S(=O)(=O)c3ccc(C)cc3)[C@@H](c3ccccc3)[C@H]12,3.4,.,-0.6,9.3%,?,3.2
CCOc1ccc(-n2c(SCc3cc(=O)oc4cc(C)c(C(C)C)cc34)nnc2-c2cccnc2)cc1,-8.4,-0.8,-0.6,0.6%,1.7,-6.0
NC(=O)CSCc1nc2ccccc2s1,-17.1,4.6,-0.2,-3.1%,-7.9,-6.0
OC[C@H]1O[C@@H](c2nc3ccc(-c4nc(-c5cccs5)no4)cc3[nH]2)C[C@@H]1O,-5.1,-12.9,0.3,2.9%,?,-4.3
CC1CCCC(NC(=O)COc2ncnc3ccccc23)C1C (stereo not given),-17.3,-20.1,-0.1,1.0%,1.2,-1.9
CCOC(=O)CC(NC(=O)c1ccccc1)c1ccc(OC)cc1 (stereo not given),-6.8,23.1,1.5,0.8%,8.2,-3.7
CC(=O)c1ccc(OCCCC(=O)n2nnc3ccccc32)cc1,4.3,6.9,-1.0,1.1%,2.2,3.5
CC(C)(C)Cc1c(-c2ccccc2)nc2ccc(Br)cn12,3.9,27.5,0.0,?,5.3,-8.3
COc1cccc(CNC(=O)CN(c2ccc(C)cc2)S(=O)(=O)N(C)C)c1OC,.,3.1,-1.1,2.9%,.,.
NCCCC[C@H](NC(=O)C1CCNCC1)c1nnc([C@@H](N)CO)o1,3.3,-4.3,-0.5,0.2%,-15.8,3.8
O=C(NCc1ccccc1)C(=O)NCC(c1cccs1)S(=O)(=O)c1ccccc1 (stereo not given),.,3.6,0.3,2.5%,.,.
CCOC(=O)c1ccc2[nH]c(C)cc(=O)c2c1,3.1,-25.4,0.6,-2.9%,-1.3,-3.2
N=c1ccn(Cc2ccc(F)cc2)cc1,-18.8,-6.2,-0.7,1.6%,-2.4,-3.1
Cc1ccc(N2C(=O)c3cccc4c(N5CCN(C)CC5)ccc(c34)C2=O)c2cccnc12,-7.9,15.8,29.6,?,4.6,-3.5
Cc1ccc(N(CC(=O)O)S(C)(=O)=O)cc1,-2.9,-4.7,1.3,0.2%,10.8,-3.0
COc1ccc(Cc2nnc(SCC(=O)N3CCN(c4ccccc4)CC3)o2)cc1,-12.6,11.2,1.1,0.6%[38.3 µM],-0.5,0.0
COc1ccc(-n2nnc3c(SCC(=O)c4ccccc4)ncnc32)cc1,-16.6,-9.0,-0.3,1.7%,-4.5,-1.3
CCOC(=O)C1=C(O)CSC1=Nc1ccccc1,-7.1,11.7,-0.8,-0.5%,-2.0,-3.4
CCOc1ccc(NC(=O)c2c[nH]n3c(=O)cc(C4CCN(C(=O)OC(C)(C)C)CC4)nc23)cc1,-6.6,17.9,0.2,1.8%,-1.1,-2.6
O=C1OCCC1S(=O)(=O)c1ccc2ccccc2c1 (stereo not given),-16.9,-12.1,-1.0,11.8%[38.3 µM],9.5,-3.7
CCN(CC)CCn1c(NC(=O)c2ccc(C(F)(F)F)cc2)nc2ccccc21,-25.5,9.0,0.6,0.2%,-2.7,-3.5
CCN1C(=S)N[C@@H](CCc2ccccc2)[C@H](C(=O)OC)[C@H]1C,-5.9,6.7,-0.2,0.7%,-2.9,-3.2
O=C1NC(Cc2ccc(O)cc2)c2nc3cc(Cl)ccc3c(=O)n2-c2cc3ccccc3cc21 (stereo not given),-2.6,-8.4,1.4,4.0%,20.6,-5.1
Cc1ccc2c(c1)N(CCC(=O)NCc1ccc(F)cc1)C(=O)CO2,.,2.5,0.4,0.3%,.,.
N#C/C(=C/c1ccc(CNS(=O)(=O)c2ccccc2)o1)C(=O)NCc1ccccc1,-23.4,-7.6,0.2,0.8%,-5.9,-0.3
CC1=C(C#N)C(/C=N/OCc2ccc(Cl)cc2)CC(=O)N1 (stereo not given),-20.9,8.2,-1.0,2.1%,16.2,-9.1
COc1cccc(CNc2ccc(Br)cn2)c1O,1.4,6.5,-0.1,17.5%[38.3 µM],-4.9,-0.7
CCCc1nnc(SCC(=O)N2CCCCC2C)n1CCCOC (stereo not given),-7.6,-5.8,-0.8,1.3%,-0.2,-0.9
CC(=O)c1c(C)[nH]c(C(=O)CSc2nnc(CN3CCCCCC3=O)n2-c2ccccn2)c1C,-5.1,3.0,0.5,-1.6%[38.3 µM],2.4,-2.6
COc1ccc(OC)c(CNC(=O)CN2CC(C)Sc3ccccc32)c1 (stereo not given),.,22.1,5.6,-0.9%,.,.

# Just TRPML1 inh, Six1-Eya2 inh and PINK1 modulator (2 entries from above):
compound	TRPML1 inh	Six1-Eya2 inh	PINK1 modulator
CCN1C(=S)N[C@@H](CCc2ccccc2)[C@H](C(=O)OC)[C@H]1C	6.7	-2.9	0.7%
O=C1NC(Cc2ccc(O)cc2)c2nc3cc(Cl)ccc3c(=O)n2-c2cc3ccccc3cc21 (stereo not given)	-8.4	20.6	4.0%

# Later entries:
SMILES,D2 potentiator,TRPML1 inh,TRPML1 agonist,PINK1 modulator,Six1-Eya2 inh,D2 ag
COC(=O)CN1C(=S)N(c2ccc(F)cc2)C(=O)C1CC(=O)Nc1ccc(OC)cc1 (stereo not given),4.4,13.1,3.3,0.8%,0.9,-0.1
Cc1ccsc1C(=O)N1CCN(c2ncccn2)CC1,0.7,-0.5,-0.5,0.1%,2.2,-1.0
Cn1ncc2c(Nc3cccc(C#N)c3)ncnc21,.,-1.0,0.2,1.9%,.,.
COc1ccc(S(=O)(=O)Nc2ccc(S(=O)(=O)Nc3ccc(F)cc3)cc2)cc1C,-0.1,-3.0,-0.9,-1.1%,-5.2,5.3
COc1ccc(C(=O)NCc2ccc(S(N)(=O)=O)cc2)cc1[N+](=O)[O-],-4.9,4.4,0.2,2.6%,3.8,-4.4
O=C(N/C=N/OCc1ccc(Cl)cc1Cl)NOCc1c(Cl)cccc1Cl,-3.6,-8.6,0.7,-0.5%,1.1,-5.4
COc1ccc(-c2cc(-c3nnc(COC(=O)C4CC4C)o3)c3ccccc3n2)cc1OC (stereo not given),20.3,14.0,1.2,1.6%,49.6,-3.5
CC(C)(C)n1nnnc1C(c1ccccc1)N1CCN(c2ccc(F)cc2)CC1 (stereo not given),.,.,2.4,-0.6%,1.3,.
O=C(c1ccc(Cl)cc1)c1cn[nH]c1-c1ccccc1O,-1.2,7.3,0.0,.,-1.5,1.3
